Biofilm kill mix = mixture kills Candida albicans biofilm cells. C. albicans biofilm persisters + clotrimazole, fluorescence viability; primary screen in compound mixtures of four per well. inhibition, % at 7.6 µM. 120,000 tested, 0.02% active. AID 1242;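 active means inhibition above 30.3% in the primary screen of four-compound pools, then above 30% when the compound was retested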;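 further: compounds exposed to preformed 24 h biofilms for 48 h; the number belongs to the whole pool; some results filed as inactive read as strong as hits; inactives centre near 12; 0% = biofilm with clotrimazole alone and 100% = kill control; retested singly at about 60 µM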
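System: C. albicans CAF4-2 wild-type biofilms; Medium: RPMI/MOPS medium, pH 7.0; Reagent: Clotrimazole, 50 µg/mL; Times: biofilm formation 24 h, compound exposure 48 h, 37 °C; Detection: 2-h Alamar Blue fluorescence, 535/590 nm excitation/emission; Evaluation: percent inhibition of biofilm viability.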
An asterisk follows results filed as active.

SMILES	Biofilm kill mix
Cc1csc(Nc2ccccc2)[n+]1C	11
CCN(CC)S(=O)(=O)c1ccc(OCC(=O)NCc2ccco2)cc1	3
Cc1c(C2C(C#N)=C(N)OC3=C2C(=O)CCC3)cnn1C (centres undefined)	-7
C/C(=N\Nc1ccc(S(=O)(=O)Nc2ccccc2)cc1[N+](=O)[O-])c1ccc(N2CCOCC2)cc1	8
c1ccc(-c2nc(-c3ccc(-c4ccon4)s3)no2)cc1	10
O=C(CCC(=O)Nc1ccccc1)NNC(=O)CCc1ccccc1	13
CCOC(=O)Cc1csc2nc(-c3ccccc3)nn12	11
COc1cc(C)c(/C=C(\C#N)C(=O)Nc2ccc(C)cc2)cc1C(C)C	11
Cc1ccc(C)c(NC(=O)Cc2ccc(S(=O)(=O)N3CCCCC3)s2)c1	-11
COc1ccc(NC(=O)C/C(C)=N/NC(=O)c2ccncc2)c([N+](=O)[O-])c1	9
O=C(CSc1nc2c(sc3ccccc32)c(=O)n1CCCN1CCOCC1)NCC1CCCO1 (centres undefined)	2
CCC(=O)Nc1ccc(Oc2ccc(NC(=O)CC)c(NC(=O)CC)c2)cc1	-4
CC(=O)N/C(=C\c1ccc(F)cc1)C(=O)NC(Cc1c[nH]c2ccccc12)C(=O)O (centres undefined)	12
CCc1cc2c(=O)c(-c3ccc(F)cc3)c(C)oc2cc1OCC(=O)O	18
CN(C)/N=C/c1ccc(OC(=O)c2cccc([N+](=O)[O-])c2)cc1	-5
C=CCn1c(C)nc2ccccc2c1=O	4
Cc1cccc(-n2cnc3c(sc4nc(N5CCOCC5)c5c(c43)CCCC5)c2=O)c1	8
C(=N\Nc1nc(N2CCOCC2)nc(N2CCOCC2)n1)/c1ccncc1	4
O=C(c1sc2cc([N+](=O)[O-])ccc2c1Cl)N1CCCCC1	8
CCOc1ccc(CN2CCN(Cc3cc4c(cc3Cl)OCO4)CC2CCO)cc1 (centres undefined)	24
CCOC(=O)C(C)(C)NS(=O)(=O)c1ccc(Cl)c([N+](=O)[O-])c1	-4
COCCCNC(=S)NNC(=O)C1CC1c1ccc(C(C)(C)C)cc1 (centres undefined)	11
CC(C)Oc1ccc(C(=O)NC(=S)N2CCOCC2)cc1	11
Cc1ccc(N2CCN(CC(O)COc3cccc4ccccc34)CC2)cc1 (centres undefined)	19
CC(C)c1ccccc1OCCNC(=O)c1cncc(Br)c1	22
COc1cc(Cl)ccc1NC(=O)COc1ccccc1C(=O)NN	12
Cc1ccc(OCc2n[nH]c(=S)n2N)cc1C	22
COc1ccc(C)cc1Nc1n[n+](C)c(-c2ccc(C(=O)O)cc2)s1	12
COC(=O)c1ccccc1NC(=O)COC(=O)CSc1nnc(N)s1	9
Cc1cc(N=Nc2ccc(Cl)cc2)cc(CN2CCOCC2)c1O	20
O=C(O)C1Sc2[nH]c(=O)sc2C2c3ccc(O)cc3OC(=O)C12 (centres undefined)	4
O=C(O)c1cc(S(=O)(=O)N2CCOCC2)ccc1N1CCCCC1	11
CC(C)(C)C(=O)Nc1nc2cc3c(cc2s1)OCO3	35
CN1C(C(=O)NCc2cccc(Br)c2)CC2Cn3c(nc4ccccc43)C21 (centres undefined)	16
COc1cc(C2CC(=O)n3c(nc4ccccc43)S2)cc(OC)c1OC (centres undefined)	1
O=C(NCc1nc2ccccc2[nH]1)C1=C[C@H](c2ccccc2)C[C@H](OCc2ccc(CO)cc2)O1	10
CCCN1CCN(C(=O)Cn2cnc3ccc(S(=O)(=O)N4CCC(C)CC4)cc3c2=O)CC1	13
COCCCn1c(O)c(/C=C2\N=C(C#N)C(=Nc3ccc(C)cc3)O2)sc1=S	28
CCN(CCn1cccn1)C(=O)CC1C(=O)NCCN1Cc1ccc(F)cc1 (centres undefined)	19
O=C(NC1CCCC1)C1CCN(c2cnccn2)CC1	14
CC(C)NS(=O)(=O)c1ccc(CCC(=O)Nc2ccc3c(c2)OCCO3)cc1	15
O=C(Cc1ccc(F)cc1)N1CCC(N2CCC(C(=O)N3CCOCC3)CC2)CC1	-3
Clc1ccc(-n2nnnc2-c2cnc(-c3ccncc3)nc2-c2cccs2)cc1	16
O=C(COc1ccc(Cl)cc1Cl)NNC(=S)NCc1ccco1	13
CC1CCN(CCCOc2ccc(Cl)cc2Br)CC1	8

Compounds from the list above that contain two or more sulfur atoms, in the order listed:
SMILES	Biofilm kill mix
Cc1ccc(C)c(NC(=O)Cc2ccc(S(=O)(=O)N3CCCCC3)s2)c1	-11
O=C(CSc1nc2c(sc3ccccc32)c(=O)n1CCCN1CCOCC1)NCC1CCCO1 (centres undefined)	2
COC(=O)c1ccccc1NC(=O)COC(=O)CSc1nnc(N)s1	9
O=C(O)C1Sc2[nH]c(=O)sc2C2c3ccc(O)cc3OC(=O)C12 (centres undefined)	4
COCCCn1c(O)c(/C=C2\N=C(C#N)C(=Nc3ccc(C)cc3)O2)sc1=S	28

(list continues)
SMILES	Biofilm kill mix
O=S1(=O)N=C(N=Nc2c(O)[nH]c3ccccc23)c2ccccc21	13
CCCCNCc1nc2ccccc2c(=O)[nH]1	13
COc1cccc(/C=C2/SC(=O)N(C)C2=O)c1OCc1ccc(C(=O)O)cc1	11
O=C(Nc1ccc(OC(F)(F)F)cc1)Nc1cccnc1	6
CCOC(=O)c1oc2ccccc2c1CSc1nnc(-c2ccco2)o1	6
CCN(CC(=O)Nc1c(F)cccc1F)C(=O)CCc1ccc(OC)cc1	14
COc1ccc(C)cc1NC(=O)Nc1cnccn1	9
Cc1[nH][nH]c(=O)c1C=NCc1ccc(Cl)cc1	11
Nc1nc(NC(=O)c2ccccc2Cl)nn1-c1ccccc1	11
CC1=NN(c2nc(-c3ccc(C)cc3)cs2)C(=O)C1N=Nc1ccccc1O (centres undefined)	19
COc1cc(C=O)c(Br)cc1OCC(=O)NCCc1ccccc1	8
Cc1ccc(C)c(S(=O)(=O)N/N=C/c2ccc(N(C)C)cc2)c1	16
COc1ccc(N2CCC(CNC(=S)Nc3cc(C)cc(C)c3)C2)cc1 (centres undefined)	23
CCOc1ccc(CN2CCN(Cc3cnn(CC)c3C)CC2CCO)cc1 (centres undefined)	0
O=C(CSc1nnc(-c2ccc(F)cc2)n1-c1ccccc1)NCCN1C(=O)CSC1=O	8
CC(=O)NC(=S)Nc1ccc(NC(=O)COc2ccc(C(C)C)cc2)cc1	5
O=C1N/C(=N\N=C\c2ccco2)SC1Cc1ccc(F)cc1 (centres undefined)	9
O=C(Nc1nccs1)c1cc(-c2ccccc2)nn1-c1ccccc1	16
CCn1nc(C)c(CN2CCCC(C(=O)c3cccc(OC(C)C)c3)C2)c1C (centres undefined)	5
CN(C)C(=O)CN1CCN(Cc2cn(C)nc2-c2ccc3c(c2)OCCO3)CC1	22
CCCCn1c(N)c(NCc2ccccc2)c(=O)[nH]c1=O	12
Cc1ccc(-n2nc(C)c3c2OC(N)=C(C#N)C3c2ccc(C)o2)cc1 (centres undefined)	19
CC(=O)Nc1ccc2nc(-c3ccco3)[nH]c2c1	13
O=C(N/N=C/c1cc(Br)cs1)c1ccc2c(c1)OCCO2	10
COc1cc(C2NC(=S)NC(C)=C2C(=O)OC(C)C)ccc1OC(C)C (centres undefined)	8
Cc1ccc(NS(=O)(=O)c2ccc(C(=O)NCC3CCCO3)cc2)cc1 (centres undefined)	8
Cc1ccc(C(=O)CSc2nnc(COc3ccc(C#N)cc3)n2-c2ccccc2)cc1	8
COc1ccc(NC(=O)CSc2cc(C)nc3c(-c4ccccc4)cnn23)cc1	19
CCn1ccnc1CN(C)C(=O)c1cc(COc2c(F)cccc2F)on1	-1
COc1ccc(NC(=O)c2cc(OC)c(OC)c(OC)c2)cc1S(=O)(=O)N1CCCCC1	5
COc1ccc2nc3ccccc3nc2c1	18
O=C(Nc1ccccc1)Nc1cccn(Cc2c(F)cccc2Cl)c1=O	0
CCCCCCCC[n+]1c(C)n(-c2ccccc2)c2ccc(NC(C)=O)cc21	15
COCCOC(=O)c1c(NC(=O)CN(C)c2ccccc2)sc(C(N)=O)c1C	15
CCC(C)NCCCOc1ccc([N+](=O)[O-])cc1 (centres undefined)	8
Cc1cccc(C(=O)Nc2ccnc(-c3cccnc3)n2)c1	7
C/C(=N\N1C(=O)c2ccccc2C1=O)c1cccc([N+](=O)[O-])c1	10
Cc1ccc(CN2CCN(CC(C)C)C(CCO)C2)s1 (centres undefined)	11
O=C(OCC(=O)c1c[nH]c2ccccc12)c1cc2ccccc2cc1O	12
O=C(NNc1ccc(F)cc1F)C1CCC1	-1
CC(=O)Nc1sc(NC(=O)c2ccc([N+](=O)[O-])cc2)nc1-c1cccs1	6
OCCNc1nc(-c2ccccc2)nc2ccccc12	10
CCN1CCN(CCCN(Cc2ccco2)C(=S)Nc2ccc(Cl)cc2)CC1	5
Cc1ccc(C(=O)CSc2ncnc3ccccc23)o1	1
Cn1c(=O)c2c(ncn2CCCC(=N)N2CCOCC2)n(C)c1=O	-8

As entered above.
Value of COc1cc(Cl)ccc1NC(=O)COc1ccccc1C(=O)NN under Biofilm kill mix: 12
Value of O=C(CSc1nnc(-c2ccc(F)cc2)n1-c1ccccc1)NCCN1C(=O)CSC1=O under Biofilm kill mix: 8
Value of Cc1ccc(N2CCN(CC(O)COc3cccc4ccccc34)CC2)cc1 (centres undefined) under Biofilm kill mix: 19
Value of CCN(CC)S(=O)(=O)c1ccc(OCC(=O)NCc2ccco2)cc1 under Biofilm kill mix: 3
Value of COc1ccc2nc3ccccc3nc2c1 under Biofilm kill mix: 18
Value of Cc1ccc(C(=O)CSc2ncnc3ccccc23)o1 under Biofilm kill mix: 1
Value of O=C(O)c1cc(S(=O)(=O)N2CCOCC2)ccc1N1CCCCC1 under Biofilm kill mix: 11

A different layout for four compounds above.
structure: COc1ccc(NC(=O)CSc2cc(C)nc3c(-c4ccccc4)cnn23)cc1
  Biofilm kill mix = 19
structure: CCn1ccnc1CN(C)C(=O)c1cc(COc2c(F)cccc2F)on1
  Biofilm kill mix = -1
structure: COc1ccc(NC(=O)c2cc(OC)c(OC)c(OC)c2)cc1S(=O)(=O)N1CCCCC1
  Biofilm kill mix = 5
structure: COc1ccc2nc3ccccc3nc2c1
  Biofilm kill mix = 18

Later entries
SMILES	Biofilm kill mix
CCOC(=O)c1ccc(-n2c(CCC(=O)O)ccc2-c2cccs2)cc1	17
O=C(CSc1ccccn1)Nc1ccc2c(c1)oc1ccccc12	7
Cc1cccc(C)c1NC(=O)C1(N2CCN(C(=O)c3ccco3)CC2)CCCCC1	17
Cc1c(NC(=O)/C(C#N)=C/c2c(N3CCCCC3)nc3ccccn3c2=O)c(=O)n(-c2ccccc2)n1C	11
CC(C)C[C@H](NC(=O)c1nc[nH]c1C(=O)NC(c1ccccc1)c1ccccc1)C(=O)OCc1ccccc1	17
Cc1ccc(N/C(=N/S(=O)(=O)c2cccs2)c2ccccc2)c(C)c1	8
O=C(O)c1cccc(Cl)n1	17
COc1ccccc1NC(CC(=O)c1ccccc1)C(=O)OCC(=O)c1ccc(C)cc1 (centres undefined)	17
COc1cccc2cc(C(C)N(CCCN3CCOCC3)C(=S)Nc3cc(C)cc(C)c3)oc12 (centres undefined)	7
CN(Cc1nc(Cc2ccccc2F)no1)[C@@H]1CS(=O)(=O)C[C@H]1O	4
O=C(Cc1ccccc1)NNC1CC(=O)N(c2ccc(Oc3ccccc3)cc2)C1=O (centres undefined)	33
Cc1[nH]c2ccc(-c3n[nH]c(=S)n3-c3ccc(Br)cc3)cc2c1C	7
Cc1ccccc1CC1(CO)CCCN(C(=O)c2cc(-c3ccccc3)no2)C1 (centres undefined)	16
COC(=O)c1ccc(NC(=S)N2CCN(Cc3ccccc3Cl)CC2)cc1	27
COc1ccc(CCNC(=O)CSc2nnc(-c3ccc(F)cc3)c3ccccc23)cc1OC	14
COc1cc2nc(=S)n3[nH]c(COc4ccccc4C)nc3c2cc1OC	13
O=c1oc2cc(O)ccc2c2oc3cc(O)ccc3c12	13
CC1=NN(c2nc3ccccc3[nH]2)C(=O)/C1=C/N(C)C	5
O=C(CC1S/C(=N\S(=O)(=O)c2ccccc2)N(c2ccccc2)C1=O)Nc1ccc(F)cc1 (centres undefined)	14
Cc1cccc(N2C(=O)C3C4C=CC(C5CC45)C3C2=O)n1 (centres undefined)	8
O=C(CCl)N=c1sccn1Cc1ccccc1Cl	13
Cc1ccc(NC(=O)c2ccccc2Br)cc1S(=O)(=O)N(C)C	9
CC(C)(C)[C@H]1C=C(C(=O)N2CCN(Cc3ccccc3)CC2)O[C@@H](OCc2ccc(CO)cc2)C1	10
Cc1ccc2nc(NC(=O)C3=NN(c4ccccc4)C(=O)CC3)sc2c1	18
Cc1ccc(NC(=O)Cn2cc(S(=O)(=O)c3ccccc3)c(=O)c3cc(F)ccc32)cc1	1
COCCN=c1scc(-c2ccccc2)n1/N=C/c1c[nH]c2ccccc12	12
O=C(Cc1ccc([N+](=O)[O-])cc1)Nc1cccnc1	8
CC(C)N1CCC(N2CCN(C3CCCC3)CC2CCO)CC1 (centres undefined)	14
O=C(NNC1=Nc2ccccc2SC1)c1ccccc1F	14
N#CC(C(=O)c1ccccc1)=C1SCCS1	21
O=C(O)C(Cc1ccccc1)N1C(=O)/C(=C/c2cccnc2)SC1=S (centres undefined)	-5
COc1cc(OC)cc(C(=O)NC(C)c2cnn(-c3ccccc3C)c2C)c1 (centres undefined)	5
CCOc1ccc2nc(C)cc(Nc3ccc(N4CCOCC4)cc3)c2c1	21
COc1cc(C(CCN2CCCCC2)c2c(OC)cc(OC)c3c(-c4ccccc4)cc(=O)oc23)cc(OC)c1OC (centres undefined)	17
COc1ccc(N(C)C(=O)c2cc3c(s2)-c2c(C)cccc2OC3)c(OC)c1	13
O=C(CCc1ccccn1)N1CCCC(CNS(=O)(=O)c2cccs2)C1 (centres undefined)	8
CC(/C=C/c1ccccc1F)=N\NC(=O)c1ccc(Cl)cc1	18
O=C(Oc1coc(CSc2ncccn2)cc1=O)c1cccc([N+](=O)[O-])c1	12
Cc1ccsc1/C=N/Nc1ncnc2nc[nH]c12	8
Cc1ccc(-c2nc3ccccn3c2NC(=O)c2ccco2)cc1	8
CCOc1ccc(NC(=O)COC(=O)C23CC4CC(CC(C4)C2)C3)c([N+](=O)[O-])c1	17
COc1cc(NC(=O)c2ccc3c(c2)OCO3)ccc1NC(=O)c1cccs1	41

An excerpt; count on the stated rates, not on these rows.
